# Assay outcomes as filed in PubChem BioAssay.
# Six1-Eya2 blk: blocks human Six1 binding to Eya2; AlphaScreen GST-Six1/His-Eya2 binding, biochemical; active compounds read low; control for the full effect not named in the record; Q15475+O00167; actives 0.56% (n = 360,000); activity change, % (concentration not given with the values); AID 651725; in the data active = activity change below about -65%; inconclusive = about -30% to -65%; inactive = above about -30%; note: % is set by controls: 0 for no effect and ±100 for the full control effect
#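 Compounds are tested against tagged Six1 and Eya2 proteins bridged by glutathione donor and nickel acceptor beads; after a one-hour incubation at 37 °C without light, AlphaScreen emission is recorded.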
# TRPML1 inh: human mucolipin-1 channel inhibition. actives 0.02% (n = 390,000). Q9GZU1. AID 624415. TRPML1-inducible cells, Ca2+ dye fluorescence, FDSS; active compounds read low; inhibition of EC80 agonist-evoked calcium signal. activity change, negative = inhibition, % (test concentration not listed); in the data active means activity change below about -50%; inconclusive means about -30% to -50%; inactive means above about -30%;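 note: stimulus is agonist 54-4 at its EC80 concentration; % is set by controls: 0 for no effect and ±100 for the full control effect; compound concentration not given in the record; the text of the record puts the active cut at -80%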
# Target sequence (Q9GZU1 whole entry, looked up): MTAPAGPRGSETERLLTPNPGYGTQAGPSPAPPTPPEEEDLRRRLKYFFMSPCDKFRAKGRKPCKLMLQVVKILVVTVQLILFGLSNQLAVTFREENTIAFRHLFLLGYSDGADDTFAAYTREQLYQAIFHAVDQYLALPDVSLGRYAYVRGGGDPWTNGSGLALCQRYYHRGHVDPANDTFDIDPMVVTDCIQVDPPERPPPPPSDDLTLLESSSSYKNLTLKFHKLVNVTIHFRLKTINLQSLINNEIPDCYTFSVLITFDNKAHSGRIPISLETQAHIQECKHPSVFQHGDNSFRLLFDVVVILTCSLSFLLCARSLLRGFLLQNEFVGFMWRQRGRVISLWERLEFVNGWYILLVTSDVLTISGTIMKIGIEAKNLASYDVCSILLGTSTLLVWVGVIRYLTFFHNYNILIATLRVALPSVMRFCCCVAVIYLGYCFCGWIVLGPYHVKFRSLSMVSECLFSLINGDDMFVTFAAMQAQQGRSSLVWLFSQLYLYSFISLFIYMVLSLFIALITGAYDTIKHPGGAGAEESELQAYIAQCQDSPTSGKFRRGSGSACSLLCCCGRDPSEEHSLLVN
#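 Tet-induced TRPML1-DL cells loaded with Ca8 no-wash calcium dye were read kinetically on FDSS. Compound addition was followed by EC80 agonist 54-4 (4 uM final); inhibition was read over 110 s.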
# TRPML1 agonist: agonists of human TRPML1 channel; AID 624414; actives 0.12% (n = 410,000); activation, % (concentration not given with the values); TRPML1-expressing cells, Ca2+ dye fluorescence, FDSS; host cell line not named in the record; reference of the full effect not given here; Q9GZU1; in the data active = activation above about 50%; inconclusive = about 30% to 50%; inactive = below about 30%; note: 0% is about no effect; the text of the record puts the active cut at 80%
#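 Kinetic FDSS Ca2+ read in Tet-induced TRPML1-DL cells (ABD Ca8 dye plus quencher, 45-90 min RT loading): baseline, then compound, then 110 s agonist window; EC80 agonist 54-4 at 4uM final added afterwards for a 110 s antagonist window.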
# PINK1 modulator: PINK1 expression modulation; actives 0.2% (n = 410,000); Potency, µM (titrated, usually from 76.6 µM), inactives show at the highest dose activation (PINK1 increase), most hits filed as activators; PINK1 immunofluorescence, high-content cytometry, 24 h; AID 624263; active = well fitted activation curve with a large enough effect; inconclusive = small, poorly fitted or top-dose-only effect; inactive = flat fitted curve, though single readings scatter; cell line not stated here;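 note: potency is the fitted concentration of half-maximal effect; % of control where 0% means no effect; nearly all actives have a fitted effect of over 65% in size; a mitochondrial uncoupler was the plate control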
#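 Measures PINK1 amount and localization on or inside mitochondria by immunofluorescence. Stable cells get compounds at 5 concentrations for 24 hours before fixation and staining; CCCP controls included.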
# CtBP-E1A blk: inhibitors of CtBP/E1A interaction. activity change, % (concentration not given with the values). actives 0.49% (n = 340,000). AlphaScreen GST-E1A/His-CtBP binding, 1536-well; active compounds read low; control for the full effect not named in the record; in the data active means activity change below about -65%; inconclusive means about -30% to -65%; inactive means above about -30%; note: % is set by controls: 0 for no effect and ±100 for the full control effect
#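 AlphaScreen with 125 nM GST-E1A and 125 nM His-CtBP (5X stocks) in Tris pH 8.0, 300 mM NaCl, BSA, Tween 20, TCEP. Compounds preincubated 2 h at 37 deg C, then glutathione donor/nickel acceptor beads added for 1 h at 37 deg C in dark.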
# D2 ag: activates the human D2 dopamine receptor. P14416. actives 0.084% (n = 360,000). activation, % (no concentration beside the values). DiscoveRx PathHunter D2 beta-arrestin, luminescence, 90 min; 100% = 57 uM dopamine signal; in the data active = activation above about 40%; inconclusive = about 15% to 40%; inactive = below about 15%; note: compound concentration not given in the record; the text of the record calls up to 30% inactive
# Target sequence (P14416 whole entry, looked up): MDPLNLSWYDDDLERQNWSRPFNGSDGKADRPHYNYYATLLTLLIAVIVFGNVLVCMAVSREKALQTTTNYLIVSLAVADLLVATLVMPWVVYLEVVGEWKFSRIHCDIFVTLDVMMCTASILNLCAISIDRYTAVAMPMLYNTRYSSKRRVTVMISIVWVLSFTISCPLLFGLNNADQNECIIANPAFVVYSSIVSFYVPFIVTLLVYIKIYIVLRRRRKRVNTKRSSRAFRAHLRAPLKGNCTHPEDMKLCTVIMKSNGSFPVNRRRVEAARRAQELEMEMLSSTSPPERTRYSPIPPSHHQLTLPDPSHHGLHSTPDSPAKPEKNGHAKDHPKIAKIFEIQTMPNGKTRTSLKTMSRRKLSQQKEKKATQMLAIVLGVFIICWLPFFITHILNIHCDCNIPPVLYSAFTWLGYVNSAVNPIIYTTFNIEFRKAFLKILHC
#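 Agonist mode: compounds alone added to overnight-plated D2 PathHunter cells for 90 min at 37 C, with 57 uM final dopamine (EC100) defining full response. Beta-arrestin recruitment detected by chemiluminescent reagent, read after 1 h at ambient temperature.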
# An asterisk follows results filed as active; ? = inconclusive; · = not tested or not shown; [ ] = another dose, or the depositor's remark.
Compound	Six1-Eya2 blk	TRPML1 inh	TRPML1 agonist	PINK1 modulator	CtBP-E1A blk	D2 ag
CCc1cccc(C)c1NC(=O)C(c1ccc(O)cc1)N1CCC1=O (stereo unspecified)	-1.1	1.7	1.1	-2.3%	1.6	-4.7
COc1ccc(Cn2c(=O)oc3ccccc32)cc1	14.4	-4.7	0.0	1.6%	-19.9	-3.5
CCN(CC(=O)Nc1cccc(S(=O)(=O)N(C)c2ccccc2)c1)Cc1cccs1	4.1	-1.8	3.2	2.2%	-4.8	1.9
Cc1cccnc1NC(=O)c1ccco1	5.3	17.0	-0.7	1.7%	14.2	-0.8
NC(=O)CC(NC(=O)Cc1cccc2ccccc12)c1ccc(NC2CC3CCC2C3)c([N+](=O)[O-])c1 (stereo unspecified)	-12.5	9.9	0.0	1.5%	-17.2	-3.4
COc1cccc(CN2CCN(Cc3ccccc3C(F)(F)F)CC2)c1	-0.9	-4.6	2.0	?	-6.7	1.3
CC(C)OCCCn1c(=O)c2ccccc2n2c(-c3cc(Cl)ccc3O)nnc12	·	-2.9	-1.0	1.6%	·	·
FC(F)(F)c1cccc(-c2cc3ccccc3nc2N2CCCC2)c1	108.1	-14.7	-0.4	?	39.5	-1.9
CCCCn1c(N)c(N(CCC(C)C)C(=O)C2CC(=O)N(Cc3ccc(C)cc3)C2)c(=O)[nH]c1=O (stereo unspecified)	16.0	-9.5	-0.2	-3.2%	-15.1	1.9
O=C(NC(Cc1ccccc1)C(=O)N1CCCC(C(F)(F)F)C1)c1ccccc1 (stereo unspecified)	4.5	-21.1	-0.4	4.8%	2.2	4.4
Cc1cccc(NC(=O)c2cc(S(=O)(=O)N3CCN(c4ccccc4F)CC3)ccc2F)c1C	·	8.0	1.0	1.2%	·	·
O=C(CN1C(=O)NC2(CCCC2)C1=O)Nc1cccc(C(F)(F)F)c1	-1.9	-5.2	-1.1	2.8%	8.5	-1.7
CS(=O)(=O)c1cccc(C(=O)Nc2ccccc2Cc2ccccc2)c1	9.0	11.0	0.7	0.3%	3.9	-0.4
O=C(COC(=O)c1ccc(Br)o1)Nc1ccc(S(=O)(=O)N2CCCC2)cc1	0.0	-17.5	0.7	6.4%	-11.8	-2.3
COc1cc(C(=O)O/N=C(\N)c2ccncc2)cc(OC)c1OC	-5.8	-1.2	0.3	-2.1%[38.3 µM]	-4.8	13.6
S=C(Nc1ccccc1)Nc1ccc2cn[nH]c2c1	-5.1	21.5	1.1	-1.4%	·	6.2
CCCCN(C)CCNC(=O)c1cc2c(-c3cccc(OC)c3)nn(C)c2s1	-23.1	-8.2	0.5	-0.1%	-19.8	2.6
CCCn1c(N)c(C(=O)CSc2nc(C)cs2)c(=O)n(C)c1=O	-0.7	10.4	-0.5	1.1%	-11.3	9.2
COc1ccc(NC2=NCC(Cc3ccc(Br)cc3)S2)cc1 (stereo unspecified)	-4.9	-1.7	-0.3	3.5%	-26.6	-10.1
O=C(NCc1ccccn1)C1CCN(S(=O)(=O)c2ccccc2)CC1	3.8	-4.9	0.4	-0.1%	2.8	-1.6
O=C(c1ccc(F)cc1)c1cccc(C(=O)c2ccc(F)cc2)n1	4.2	8.6	2.4	7.7%	11.2	-1.4
CCc1ccc(N(CC(=O)NCc2ccc3c(c2)OCO3)C(=O)c2csnn2)cc1	3.1	9.7	0.7	8.1%	9.5	-0.3
CSc1ccc(CCNC(=O)c2cc3c(-c4ccccc4F)nn(C)c3s2)cc1	·	-7.8	0.1	2.3%	·	·
CC(=O)Nc1ccc(NC(=O)C2CC(=O)N(c3ccccc3Cl)C2)cc1 (stereo unspecified)	9.1	-1.3	0.1	-0.3%	-4.8	1.6
O=C(C1CC2CCC1C2)N1CCN(Cc2ccc3c(c2)OCO3)CC1 (stereo unspecified)	-0.8	-2.6	0.0	12.1%	-6.4	2.4
Cc1ncc2c(c1OC(=O)c1ccccc1)COC(C)(C)OC2	-0.3	19.2	-0.6	1.1%[38.3 µM]	-1.1	-2.7
O=c1c2ccccc2nc2n1CCc1c-2[nH]c2ccccc12	1.2	-9.3	0.1	3.7%	-0.3	-2.3
COc1ccc(CN2CCN(CC3CC3)CC2CCO)cc1C (stereo unspecified)	-4.4	-18.8	0.0	-1.5%	·	-0.4
Cc1c(C(=O)O)oc2ccc(S(=O)(=O)NCc3ccc(F)cc3)cc12	3.5	-3.3	0.7	-5.7%[38.3 µM]	-3.4	0.3
O=C(Nc1cccnc1)Nc1cccc(F)c1	-5.0	0.3	-0.6	0.3%	·	-0.3
CN(CC(=O)Nc1ccc(Cl)cc1)CC(=O)Nc1sc2c(c1C(N)=O)CCC2	-23.1	-9.5	-0.9	0.7%	-3.6	0.4
CCOc1ccc(-n2cc(-c3ccccc3)c3c(=S)nc[nH]c32)cc1	-27.3	0.2	1.0	1.0%	·	3.5
COc1ccc(CNCc2cccc(Cl)c2)cc1	0.7	9.8	-0.1	1.5%	-4.0	-5.0
COc1ccc(C(=O)N2CCC(C(=O)Nc3ccc(Cl)cc3)CC2)cc1	·	-16.1	0.5	-1.7%	·	·
CCOc1ccc(NC(=O)Nc2ccc(Cc3ccncc3)cc2)cc1	5.1	-10.7	-0.3	8.5%	6.5	5.0
COCc1ccc(C(=O)N2CCCC(N(C)CCc3ccccc3)C2)s1 (stereo unspecified)	3.2	-9.6	-0.1	-0.4%	-1.7	-0.1
CC(C)NC(=O)c1cccc(C(F)(F)F)c1	4.3	-2.6	0.4	3.1%[38.3 µM]	9.8	-2.8
Cn1c(NCC2CCCO2)nc2c1c(=O)n(Cc1ccccc1)c(=O)n2C (stereo unspecified)	0.9	-1.3	0.2	·	9.6	2.1
Cc1cccc(-n2c(O)c(C=Nc3ccccc3)c3ccccc3c2=O)n1	-10.2	-0.5	-0.7	2.5%	-10.2	0.4
COc1cc(C(=O)N2Cc3cc4ccccc4nc3C2C)cc(OC)c1OC (stereo unspecified)	-2.1	0.6	-0.5	1.4%	5.7	-3.6
CC(=O)c1ccc(OCCCC(=O)Nc2ccc(C)c(S(=O)(=O)N3CCOCC3)c2)cc1	-0.4	-3.0	0.2	0.9%	-22.2	-3.1
COc1cc([C@@H]2CC=C(C(=O)O)[C@H](c3ccccc3F)N2S(=O)(=O)c2ccc(C)cc2)cc(OC)c1OC	3.4	4.0	2.4	1.2%	0.6	-2.9
Cn1c(N2CCCCC2)nc2c1c(=O)[nH]c(=O)n2C	1.5	-4.8	0.0	-0.9%	-1.0	-0.2
COC(=O)CCC(=O)NC1CC(C)(C)Cc2c1cnn2-c1ccc(F)cc1 (stereo unspecified)	-3.5	42.5	0.2	0.0%	5.0	2.0
Clc1ccc(-c2nc3ccc(Cl)cn3c2Cc2ccccc2)cc1	-5.3	11.2	0.2	19.9%	3.3	-10.1
C=CCn1c(-c2cccs2)nc2ccccc21	-2.9	33.5	-0.5	2.4%	4.8	-1.2
CCOC1=C2[C@@H](CN(S(=O)(=O)c3ccc(C)cc3)[C@H]2c2ccccc2Cl)[C@H]2C(=O)N(C)C(=O)[C@H]2C1	3.1	-8.6	-0.2	2.8%	-13.8	-6.3
COC(=O)c1c(C)[nH]c(C(=O)CSc2nnnn2-c2ccccc2)c1C	0.0	2.5	-0.6	4.6%	3.0	0.5
CSc1nc2ccc(S(=O)(=O)N3CCc4ccccc43)cc2s1	0.8	26.2	2.3	-0.5%[38.3 µM]	3.8	1.7
CCOCCCNC(=O)CCSc1ccc(C)cc1	4.8	5.1	0.7	3.9%	10.4	-1.6
COc1ccc(C2C(C(=O)OC(C)C)=C(C)N=c3s/c(=C\c4cccs4)c(=O)n32)cc1 (stereo unspecified)	4.1	41.0	1.1	-0.8%	-0.5	-3.6
O=C(NC1CCCC1)c1ccc2c(=O)n(Cc3ccccc3)c(SCc3ccccc3F)nc2c1	·	-9.3	1.1	-0.4%	·	·
Cc1ccc(-n2c(SCC(=O)OC(C)C)nnc2-c2ccccn2)cc1	-11.9	4.4	0.2	6.6%[38.3 µM]	-15.3	-2.5
Cc1cc(NC(=O)c2ccc(F)cc2)ccc1-c1cc2ccccc2oc1=O	·	1.0	-0.3	3.4%	·	·
COc1ccccc1CNC(=O)CCNS(=O)(=O)c1cccc2nonc12	-1.0	2.4	0.7	0.6%	1.9	-3.1
CN(C)CC(C)(C)CNCc1cc(=O)oc2ccc3ccccc3c12	1.0	-7.4	-0.3	-0.5%	-2.6	-1.9

# (list continues)
Compound	Six1-Eya2 blk	TRPML1 inh	TRPML1 agonist	PINK1 modulator	CtBP-E1A blk	D2 ag
CC(C)CCNc1nc2c(S(=O)(=O)c3ccc(Br)cc3)nnn2c2ccsc12	·	-16.0	0.6	1.8%	·	·
Cc1ccc(C(=O)COC(=O)CN2C(=O)C3CC=CCC3C2=O)cc1C (stereo unspecified)	-6.1	18.8	-0.8	-0.3%	-1.9	-3.4
Cc1cc(C)n(S(=O)(=O)c2ccc(Cl)cc2)n1	11.5	6.4	0.5	0.1%	6.4	5.4
OCC1=C[C@@H](O)[C@@H]2C=CO[C@@H](O[C@@H]3O[C@H](CO)[C@@H](O)[C@H](O)[C@H]3O)[C@H]12	6.9	-2.8	-0.4	-0.7%	-10.1	-1.6
O=C(CSc1nc(=O)[nH]c2c1CCCC2)NCc1ccccc1	·	-9.4	-0.9	1.6%	·	·
CCCC(=O)O/N=C(\c1ccccc1)c1ccncc1	-0.4	2.5	-0.6	0.2%	·	3.4
COC(=O)c1ccc(N2CCCCC2)c(NS(=O)(=O)c2ccc(C)cc2)c1	2.9	14.1	1.8	-6.9%[38.3 µM]	5.2	0.2
Cc1cc2c(C)nc(N/N=C/c3ccccc3)nc2o1	7.0	5.8	0.8	9.6%	-4.1	-6.7
O=C(c1cc(-c2ccco2)on1)N1CCCc2ccccc21	-3.1	38.8	0.3	0.1%[38.3 µM]	-2.1	-0.7
O=C1NC2(CCCCCC2)C(=O)N1Cc1c(F)cccc1Cl	2.0	13.4	0.4	1.8%	-17.1	-2.7
Cc1cc(=O)n(Cc2ccc(F)cc2Cl)c2c1c(C)nn2-c1ccccc1	·	12.8	1.1	0.0%	·	·
CN(C)S(=O)(=O)c1ccc(N2CCCC2)c(C(=O)OCC(=O)N2CCN(c3ccccc3)CC2)c1	-0.3	-3.9	1.1	-0.9%	-18.8	1.2
C/C(Cn1nnc([N+](=O)[O-])n1)=N\NC(=O)c1ccc(C)cc1	-2.4	13.4	0.6	6.5%	1.8	?
Clc1ccc(NCn2cncn2)nc1	8.1	-13.0	0.6	-0.6%	1.0	-1.8
CCN(CC)S(=O)(=O)c1cccc(C(=O)Oc2cccc(NC(=O)c3cccs3)c2)c1	-23.7	-19.6	1.3	3.9%	0.0	3.0
Clc1ccc(-n2ncc3c(NC4CCCC4)ncnc32)cc1	·	17.6	0.5	5.6%	·	·
